AHR act = human AHR activation; P35869; activation, % at 5 µM; AHR-responsive luciferase reporter cells, luminescence; hit rate 2.5% among 320,000; in the data active = activation above about 47%;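 also: 0% = vehicle wells and 100% = reference agonist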
GLD-1 TGE inh = GLD-1-TGE RNA interaction inhibition (C. elegans) | purified GLD-1 + fluorescein TGE RNA, fluorescence polarization | inhibition, % at 5.96 µM | hit rate 0.44% among 320,000;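 active = percent inhibition above a per-plate cutoff, the plate mean of test compounds plus 3 SD, cut at about 30% in these data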;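 also: 0% = DMSO wells with GLD-1 and probe and 100% = wells lacking GLD-1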
MEX-5 binding = C. elegans MEX-5 TCR-2 RNA binding activity | AID 1832 | hit rate 0.38% among 300,000 | activity score (negative = inhibition of binding), % at 10 µM | MEX-5/FITC-TCR2 RNA binding, fluorescence polarization; active compounds read low | Q9XUB2;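 active = inhibition past about -25% in most replicates, and total fluorescence under double the plate's negative control median, limit read from the data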;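 also: 0% = DMSO and -100% = 5 µM competing unlabeled TCR2 RNA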
PAFAH1B2 FP inh = inhibitors of human PAFAH1B2; AID 492953; P68402; recombinant PAFAH1B2, FP-rhodamine activity probe, fluorescence polarization; hit rate 1.2% among 340,000; inhibition, % at 3.39 µM;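 active = inhibition above the mean of all tested compounds plus 3 SD, cut at about 24% in these data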;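 also: 0% = enzyme with DMSO and 100% = wells lacking PAFAH1B2; many of its hits are not listed in these tables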
Bcl-xL primary = Bcl-xL (human) inhibition; Q07817; GST-Bcl-xL / FITC-Bim BH3 peptide fluorescence polarization; inhibition, % at 10.9 µM; hit rate 0.7% among 320,000; AID 2129;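 active = inhibition above the mean of all tested compounds plus 3 SD, cutoff set per campaign, cut at about 30% in these data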;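 also: 0% = DMSO wells and 100% = unlabeled Bim-BH3 peptide competitor; inhibitors lower millipolarization by displacing the labeled peptide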
Target sequence (Q07817 whole entry, looked up): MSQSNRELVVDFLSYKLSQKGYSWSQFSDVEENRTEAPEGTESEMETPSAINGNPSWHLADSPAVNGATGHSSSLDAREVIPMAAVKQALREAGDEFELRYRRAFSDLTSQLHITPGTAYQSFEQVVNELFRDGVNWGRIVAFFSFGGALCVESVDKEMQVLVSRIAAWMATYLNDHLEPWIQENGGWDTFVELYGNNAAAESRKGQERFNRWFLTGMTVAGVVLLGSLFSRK
* = called active by the depositor; . = no result given.

Keys: A = AHR act; B = GLD-1 TGE inh; C = MEX-5 binding; D = PAFAH1B2 FP inh; E = Bcl-xL primary
1	Cc1ccccc1CS(=O)(=O)CCC(=O)NCCN1CCN(c2cccc(Cl)c2)CC1
  A: 0 | B: 62* | C: -0.1 | D: 2 | E: 62*

2	COc1ccc(/C=N/NC(=O)c2cccc([N+](=O)[O-])c2)cc1OS(=O)(=O)c1ccc(C)cc1
  A: 2 | B: -3 | C: 0.6 | D: 12 | E: 6

3	COc1ccc(-c2nc(SCC(=O)Nc3nccs3)c(-c3ccc(Cl)cc3)[nH]2)cc1
  A: 72* | B: 4 | C: 0.1 | D: 3 | E: -3

4	CN1CCN(C(=O)c2ccc(NS(=O)(=O)c3ccccc3)cc2)CC1
  A: 0 | B: 3 | C: 0.3 | D: 8 | E: -5

5	N#C/C(=C(/O)CCl)c1nc2c(s1)CCc1ccccc1-2
  A: 67* | B: -6 | C: -1.6 | D: 2 | E: 17

6	Cc1ccc(NC(=O)c2sccc2SCc2cccc(C(F)(F)F)c2)cc1
  A: 4 | B: -4 | C: -0.5 | D: -4 | E: 2

7	COc1ccc(/C=N/NC(=O)c2cc(Br)ccc2O)cc1Cn1cc(Cl)cn1
  A: 6 | B: -11 | C: 0.7 | D: 9 | E: 1

8	Oc1oc(-c2ccco2)nc1C=Nc1cccc(Cl)c1
  A: 0 | B: 3 | C: 1.9 | D: 2 | E: 1

9	COc1ccc(-c2csc(Nc3ccc(S(=O)(=O)Nc4cc(OC)nc(OC)n4)cc3)n2)cc1
  A: 9 | B: 0 | C: . | D: 4 | E: 4

10	O=c1oc(-c2ccccc2)nc2c1cnn2-c1ccccc1
  A: 0 | B: -5 | C: 0.6 | D: 3 | E: -3

11	c1csc(-c2nc3c4ccccc4c4ccccc4c3[nH]2)c1
  A: 112* | B: 5 | C: 1.1 | D: 16 | E: 5

12	Cc1ccc(S(=O)(=O)Nc2nc3ccccc3nc2Nc2cccc(S(=O)(=O)N3CCCC3)c2)cc1
  A: 5 | B: 14 | C: -2.7 | D: 0 | E: 37*

13	C=CCn1c(=S)[nH]c2scc(-c3ccco3)c2c1=O
  A: 2 | B: -12 | C: . | D: 7 | E: 28

14	COCc1cc(C)nc(SCC(=O)c2ccc(O)c(O)c2)c1C#N
  A: 1 | B: 0 | C: -9.8 | D: 5 | E: 13

Part of the list above with just PAFAH1B2 FP inh and Bcl-xL primary.
| nr | SMILES | PAFAH1B2 FP inh | Bcl-xL primary |
| --- | --- | --- | --- |
| 11 | c1csc(-c2nc3c4ccccc4c4ccccc4c3[nH]2)c1 | 16 | 5 |
| 14 | COCc1cc(C)nc(SCC(=O)c2ccc(O)c(O)c2)c1C#N | 5 | 13 |
| 5 | N#C/C(=C(/O)CCl)c1nc2c(s1)CCc1ccccc1-2 | 2 | 17 |

By substructure: the entries above with a thiophene ring, fused or not (3)
Keys: A = AHR act; B = GLD-1 TGE inh; C = MEX-5 binding; D = PAFAH1B2 FP inh; E = Bcl-xL primary
6	Cc1ccc(NC(=O)c2sccc2SCc2cccc(C(F)(F)F)c2)cc1
  A: 4 | B: -4 | C: -0.5 | D: -4 | E: 2

11	c1csc(-c2nc3c4ccccc4c4ccccc4c3[nH]2)c1
  A: 112* | B: 5 | C: 1.1 | D: 16 | E: 5

13	C=CCn1c(=S)[nH]c2scc(-c3ccco3)c2c1=O
  A: 2 | B: -12 | C: . | D: 7 | E: 28

An excerpt; the hit share may differ from the screen's.
